Vaccinia mCherry = qHTS for Stage-Specific Inhibitors of Vaccinia Orthopoxvirus: mCherry Reporter Primary qHTS | AID 720579, 2013 | Vaccinia virus mCherry reporter infection, fluorescence; about a quarter of the inactives have no number | 0.63% of 310,000 active | Potency, µM (highest dose often 36.5 µM), inactives show top-dose activity change, negative = inhibition, actives largely listed as inhibitors; active = well fitted inhibition curve with a large enough effect; inconclusive = small, poorly fitted or top-dose-only effect; inactive = no such curve, though single readings can be large or run the other way; tested in A549 cells; also: nearly all actives have a fitted effect of over 35% in size; inactives centre near -10
VACV Venus inh = qHTS for Stage-Specific Inhibitors of Vaccinia Orthopoxvirus: Venus Reporter Primary qHTS; AID 720580, 2013; 0.46% of 330,000 active; Potency, µM (series often up to 36.5 µM), without a hit: top-dose activity change, negative = inhibition, hits mostly inhibitors; Vaccinia virus Venus reporter expression, fluorescence; active means well fitted inhibition curve with a large enough effect; inconclusive means small, poorly fitted or top-dose-only effect; inactive means no such curve, though single readings can be large or run the other way; tested in A549 cells; also: nearly all actives have a fitted effect of over 30% in size; inactives centre near -10
Numbers without * were called inactive; i = inactive; ? = inconclusive; nt = no result given; + = active, no number; & = joins results of further samples; [ ] = remark or other dose. % is scaled to controls: 0 for no effect and ±100 for the full control effect; potency is read from the fitted curve at half-maximal effect. No enrichment for hits. Share with any hit: about 0.86%.

Sequence of screens – Vaccinia mCherry	VACV Venus inh
- Cc1ccc(NC(=O)c2cnccn2)nc1
→ -7%	-9%
- CCOC(=O)c1csc(NC(=O)COc2ccc(Cl)cc2Cl)n1
→ -10%	-15%
- COC(=O)c1sc(S(=O)(=O)N2CCN(c3ccccc3F)CC2)c(C(=O)OC)c1C
→ -16%	2%
- CCOC(=O)c1nnsc1N
→ -3%	-19%
- O=C(NNC(=O)c1ccco1)c1ccccc1
→ -10%	3%
- O=C(CCN1C(=O)c2ccccc2C1=O)NC(=S)Nc1cccc(Cl)c1
→ -15%	-13%
- CCCC1Cc2nc(Cl)c(C#N)cc2CO1 (configuration not stated)
→ -14%	-2%
- O=C(Cn1c(CO)nc2ccccc21)NCc1ccc2c(c1)OCO2
→ -15%	-6%
- CC1CCCC(C)N1C(=O)CSc1nc2c(c(=O)n(C)c(=O)n2C)n1C (configuration not stated)
→ 31%[activator]	-3%
- COc1cccc2c1OC1(C)CC2N(C(=O)c2ccco2)C(=S)N1c1ccc(F)cc1 (configuration not stated)
→ -18%	?
- COc1ccc(C2CC(c3ccccc3)Nc3nc(NC(=O)c4ccco4)nn32)cc1 (configuration not stated)
→ nt	-29%
- C/C(=N/Nc1nc(C)cc(-c2ccccc2)n1)c1ccco1
→ ?	-18%
- CCCNC(=O)C1(C)CCN1C(=O)Cc1ccc(C(C)C)cc1 (configuration not stated)
→ 33%[activator]	5%
- CC(=O)Nc1c([N+](=O)[O-])cc2c3c(cccc13)CC2
→ i	7%
- COC(=O)/C=C/c1ccc(C(=O)NCC(=O)N[C@@H](CCC(=O)OC)C(=O)N[C@@H](CC(C)C)C(N)=O)cc1
→ i	-15%
- Cc1cccc(/C=N/NC(=O)C2CCCNC2=O)c1 (configuration not stated)
→ i	-12%
- CCCCC1CCC(C(=O)OCC(=O)N(CCOC)c2c(N)n(Cc3ccccc3)c(=O)[nH]c2=O)CC1 (configuration not stated)
→ -3%	-16%
- CN1CCN(C2CN(Cc3ccc(F)cc3)S(=O)(=O)C2)CC1 (configuration not stated)
→ 32%[activator]	11%
- COC(=O)c1ccccc1NC(=O)CN1CCCCC1
→ +	+
- Cc1nn(Cc2c(F)c(F)c(F)c(F)c2F)c(C)c1NC(=O)c1ccc(COc2ccccc2Cl)o1
→ ?	?

Overlap with the part before: two compounds, then new ones.
Sequence of screens – Vaccinia mCherry	VACV Venus inh
- COC(=O)c1ccccc1NC(=O)CN1CCCCC1
→ +	+
- Cc1nn(Cc2c(F)c(F)c(F)c(F)c2F)c(C)c1NC(=O)c1ccc(COc2ccccc2Cl)o1
→ ?	?
- C/C(=N\NS(=O)(=O)c1ccc(C)cc1)c1ccc(C)o1
→ i	-5%
- COCCn1c(SCc2cnc(-c3ccccc3)s2)nnc1-c1ccncc1
→ -10%	-11%
- CC1(C)CC[C@]2(CO)CC[C@]3(C)C(=CCC4[C@@]5(C)CC[C@H](O)[C@@](C)(CO)C5CC[C@]43C)[C@@H]2C1 (some centres not stated)
→ -9%	-27%
- COc1ccc(-c2ccc(SCC(=O)Nc3cccc(C(C)=O)c3)nn2)cc1OC
→ -25%	?
- NS(=O)(=O)c1ccc(CCNCC(=O)N2CCC(Cc3ccccc3)CC2)cc1
→ -9%	-3%
- CCn1nc(C)cc1C(=O)N1CCCC(C(=O)c2ccc(Oc3ccccc3)cc2)C1 (configuration not stated)
→ -26%	-21%
- CCCCNC(=S)NNC(=O)CCn1cc(C)cn1
→ -12%	-9%
- COc1ccc(-c2cc(=O)oc3cc(OC(C)C(=O)NCC4CCC(C(=O)O)CC4)ccc23)cc1 (configuration not stated)
→ 17%	-4%
- COc1ccc(-c2cn(Cc3ccc(C(N)=O)cc3)c(-c3ccncc3)n2)cc1
→ -10%	-17%
- CC(=O)Nc1ccc(NC(=O)CSc2nnc(N)n2-c2ccccc2)cc1
→ i	-17%
- Cc1ccc([N+](=O)[O-])cc1NC(=O)Cc1ccc(F)cc1
→ -2%	0%
- COc1cccc(NC(=O)CN(c2cccc(F)c2)S(C)(=O)=O)c1
→ -12%	-7%
- CN1/C(=C\C(=O)COC(=O)c2ccc(O)c(O)c2)C(C)(C)c2ccccc21
→ ?	60%[activator]
- Cc1cccc(OCC(=O)O/N=C(\N)c2ccc(Cl)cc2)c1
→ i	-7%
- CC1CCN(S(=O)(=O)c2ccc(C(=O)Nc3ccccn3)cc2)CC1
→ i	-10%
- COc1ccc(CC(=O)N(CCC2=CCCCC2)c2c(N)n(Cc3ccccc3)c(=O)[nH]c2=O)cc1OC
→ -24%	-16%
- CN(CCCC1CCCC1)C(=O)CCc1nnc(-c2ccccc2)o1
→ -4%	-5%
- C=CCN(C(=O)CNS(=O)(=O)c1ccccc1)C(C(=O)NCCOC)c1cccnc1 (configuration not stated)
→ 7%	1%
- COc1ccc(OCC(=O)NC(=S)NNC(=O)COc2ccc(Br)cc2Cl)cc1
→ 5%	2%
- CCC(Oc1ccccc1)C(=O)Nc1ccccc1C(=O)N1CCOCC1 (configuration not stated)
→ i	-4%
- Cc1n[nH]c(C)c1S(=O)(=O)Nc1ccc2c(c1)OCCO2
→ nt	-25%
- COC(=O)[C@@]1(Cc2ccc(F)cc2)[C@H]2c3cc(C(=O)N(C)C)n(CCO)c3C[C@H]2CN1C(=O)c1ccccc1
→ i	3%
- CCOCCCNC(=O)CC1Oc2ccc(C)cc2NC1=O (configuration not stated)
→ -8%	0%
- Cc1ccnc(NC(=O)CCCOc2cc(=O)n(C)c3ccccc23)c1
→ ?	?
- O=C(Cn1c(=O)n(CCCC(=O)NC2CCCC2)c(=O)c2ccccc21)NCCC1=CCCCC1
→ nt	-25%
- O=S(=O)(Nc1ccc(C(F)(F)F)cc1)c1ccc2c(c1)OCCO2
→ -6%	-9%
- Cc1ccc(NC(=O)C(C)Sc2nnc(C)n2CC2CCCO2)cc1 (configuration not stated)
→ -3%	17%
- Cc1ccc(OCCCCCCN2CCNCC2)c(Br)c1
→ -12%	-26%
- C[N+]1(CCCOC(=O)C2(c3ccccc3)CCCC2)CCOCC1
→ i	-12%
- Oc1cc(-n2cccn2)c(O)cc1-n1cccn1
→ i	-3%
- CCOC(=O)c1c(C)[nH]c(C(=O)COC(=O)COc2ccc(OC)cc2)c1C
→ i	-2%
- COc1ccc(C2CC=C(C(C)=O)CN2S(=O)(=O)c2ccc(Cl)cc2)cc1 (configuration not stated)
→ 5%	-2%&2%
- Cc1ccc2oc3ccccc3c(=O)c2c1
→ 8%	13%
- COCCNC(=O)Cn1cc(S(=O)(=O)Cc2ccccc2Cl)c2ccccc21
→ i	-5%
- COc1ccc(CC(=O)NCc2n[nH]c(=S)n2-c2cccc(C)c2)cc1
→ -5%	-6%
- COc1ccc(S(=O)(=O)NC2CCSc3ccccc32)cc1NC(C)=O (configuration not stated)
→ -19%	-11%
- CCO[C@H]1OC(C(=O)N2CCCCCCC2)=C[C@@H](c2ccccc2)[C@@H]1CCCO
→ -2%	5%
- CC(=O)Nc1cccc(-c2csc(Nc3cc(C)ccn3)n2)c1
→ ?	?
- COc1cccc(-n2nnc3c(=O)n(Cc4ccc(Br)cc4)cnc32)c1
→ -24%	-14%
- Cc1ccc(NC2CCCN(C(=O)c3cn4cccc(C)c4n3)C2)cc1C (configuration not stated)
→ i	-19%
- CCCSc1nnc(NC(=O)c2nc(SC)ncc2Cl)s1
→ -11%	1%
- O=C(c1ccc2c(c1)OCO2)C1CCCN(C(=O)NCc2ccccc2)C1 (configuration not stated)
→ i	-8%
- Cc1cccc(NC(=S)NC(=O)CCc2ccccc2)c1C
→ i	-11%
- Brc1csc(C=Nc2ccc3c(c2)OCCOCCOCCOCCO3)c1
→ -1%	-7%
- O=C(NCCCNc1ccc(C(F)(F)F)cc1[N+](=O)[O-])c1ccc(Cl)cc1
→ -3%	-17%
- CCn1c(SCC(=O)N(C)c2ccccc2)nc2c([nH]c3ccccc32)c1=O
→ -19%	-16%
- CCOC(=O)Nc1ccc(NC(=O)OCC)cc1
→ -14%	-5%
- O=C(CSc1ccc(-c2ccco2)nn1)Nc1ccc(F)cc1
→ -29%	-25%
- COCCOC(=O)C1=C(C)NC(C)=C(C(=O)OC(C)C)C1c1cccc([N+](=O)[O-])c1 (configuration not stated)
→ -27%&-17%	-21%&-11%&-15%
- COc1ccc(OC)c(CNC(=O)Cc2ccc(NC(=O)N3CCCCc4ccccc43)cc2)c1
→ -15%	-1%
- Cn1cccc1-c1nc2ccc([N+](=O)[O-])cc2[nH]1
→ -9%	-14%
- COc1ccc(N(C(=O)c2snc(C(N)=O)c2N)C(C(=O)NC2CCCC2)c2cccs2)cc1OC (configuration not stated)
→ -15%	-6%
- Cc1oc2ccc(O)c(CN(C)Cc3ccccc3)c2c1C(=O)Nc1ccccc1
→ -5%	-22%
- COC(=O)c1cc2oc3ccccc3c2n1Cc1ccccn1
→ nt	-28%
- COc1ccc(/C=C2\SC(=S)N(N3C(=O)CCC3=O)C2=O)cc1O
→ -10%	-1%
- CC(=O)c1ccc(S(=O)(=O)N2CCN(C(=O)c3ccccc3Cc3ccccc3)CC2)cc1
→ -21%	-6%
- CCc1c(C)sc2c1CCN(Cc1ccc(F)cc1)C2c1ccccc1 (configuration not stated)
→ -18%	-9%
- CN(C)CCNC(=O)CN1N=C(c2ccccc2)CCC1=O
→ -7%	-9%
- CC(C)N1C(=O)CCC1C(=O)NCc1ccco1 (configuration not stated)
→ i	3%
- COc1ccc2c(c1)c(=O)c(S(=O)(=O)c1ccc(F)cc1)cn2Cc1ccccc1Cl
→ -3%	-3%

4 structures out of the list, ordered by length of the SMILES, high to low:
Sequence of screens – Vaccinia mCherry	VACV Venus inh
- COc1ccc(N(C(=O)c2snc(C(N)=O)c2N)C(C(=O)NC2CCCC2)c2cccs2)cc1OC (configuration not stated)
→ -15%	-6%
- CC(=O)c1ccc(S(=O)(=O)N2CCN(C(=O)c3ccccc3Cc3ccccc3)CC2)cc1
→ -21%	-6%
- COc1ccc(OC)c(CNC(=O)Cc2ccc(NC(=O)N3CCCCc4ccccc43)cc2)c1
→ -15%	-1%
- CC(C)N1C(=O)CCC1C(=O)NCc1ccco1 (configuration not stated)
→ i	3%

Quoted from the listing.
Vaccinia mCherry result of `O=C(NNC(=O)c1ccco1)c1ccccc1` : -10%
VACV Venus inh result of `O=C(CSc1ccc(-c2ccco2)nn1)Nc1ccc(F)cc1` : -25%
VACV Venus inh result of `O=C(CCN1C(=O)c2ccccc2C1=O)NC(=S)Nc1cccc(Cl)c1` : -13%
Vaccinia mCherry result of `COc1ccc(-c2ccc(SCC(=O)Nc3cccc(C(C)=O)c3)nn2)cc1OC` : -25%
Vaccinia mCherry result of `C=CCN(C(=O)CNS(=O)(=O)c1ccccc1)C(C(=O)NCCOC)c1cccnc1` (configuration not stated) : 7%

The listing continues.
Sequence of screens – Vaccinia mCherry	VACV Venus inh
- COc1ccccc1C(=O)Nc1nnc(-c2ccc(F)cc2)s1
→ 6%	-3%
- CCOc1ccccc1-n1c(SCC(=O)N2CCOCC2)nnc1-c1ccccn1
→ i	-21%
- COc1cc(OC)cc(-n2c3nc4ccccc4nc3c3c(=O)n(CC4CCCO4)cnc32)c1 (configuration not stated)
→ -2%	-6%
- CCOC(=O)C(CC)Sc1nc2c(cnn2-c2ccccc2)c(=O)[nH]1 (configuration not stated)
→ i	-13%
- Cc1cccc(NC(=O)c2ccc3c(Cl)c4c(nc3c2)CCCC4)n1
→ 2%	-14%
- CC(=O)Nc1ccc(C=NNC(=O)c2ccc(NS(=O)(=O)c3cccs3)cc2)cc1
→ i	-17%
- CCOc1cc(S(=O)(=O)NC2CCCCCC2)ccc1F
→ nt	?
- COc1ccccc1N1CCN(C(=O)c2cc3c(=O)n(Cc4ccco4)ccc3nc2C)CC1
→ -2%	-4%
- Clc1cccc(CNc2nnnn2-c2ccccc2)c1
→ -25%	-23%
- Cc1cccc(OCc2cc(=O)n3c4c(sc3n2)CCCC4)c1C
→ -5%	-12%
- CCOC(=O)N1CCc2c(sc(NCc3sccc3C)c2C(=O)Nc2cc(Cl)ccc2OC)C1
→ 3%	16%
- O=C1CCCCN1CCCC(=O)N1CCCC(Nc2ccc(F)c(F)c2)C1 (configuration not stated)
→ -12%	-18%
- NC(=O)c1ncn([C@@H]2O[C@H](CNCc3cccc4c3sc3ccccc34)[C@@H](O)[C@H]2O)n1
→ -11%	-9%
- O=C(O)c1ccc(C=C(c2nc3ccccc3s2)c2nc3ccccc3s2)cc1
→ -12%	-2%
- CC(=O)c1ccc(N2CCN(C(=O)c3cn(C)c(=O)c4c3c3ccccc3n4C)CC2)cc1
→ 2%	-2%
- S=C(NNC(=S)NC1CC2CCC1C2)NC1CC2C=CC1C2 (configuration not stated)
→ -20%	-1%
- O=C(COc1ccccc1[N+](=O)[O-])Nc1cccc(S(=O)(=O)NC2=NCCCCC2)c1
→ -7%	-19%
- CN(C)S(=O)(=O)c1cc(C(=O)OCCn2cnc3c2c(=O)n(C)c(=O)n3C)ccc1Cl
→ -4%	-8%
- COc1ccc(C)cc1NC(=O)CSc1nc(=O)n(Cc2ccccn2)c2c1CCC2
→ -17%	-25%
- C[C@H]1COc2cc(N3CCN(Cc4ccccc4F)CC3)ccc2S(=O)(=O)N1
→ 11%	-3%
- CCN(C(=O)COC(=O)c1ccccc1O)c1cccc2ccccc12
→ -21%	-14%
- CC1C=CCC2C(=O)N(c3cccc(C(=O)Nc4ccc(Br)cc4)c3)C(=O)C12 (configuration not stated)
→ -8%	-18%

Screens from PubChem.
